Source: PubChem BioAssay
GIV-Gai inh: GIV-Galpha-i interaction inhibition; P08753; Galpha-i3/FITC-GIV peptide fluorescence polarization, 90 min; stronger effect = lower value; scaled: aluminum fluoride 0%, vehicle 100%; percent of control (FP), % (concentration not given with the values); hit rate 0.42% among 210,000; AID 1224905;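 active = replicate mean at 85% of control or lower, very high polarization wells dropped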;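 note: wells of about 15 µL received 100 nL stock; the first replicate is given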
Target sequence (P08753 whole entry, looked up): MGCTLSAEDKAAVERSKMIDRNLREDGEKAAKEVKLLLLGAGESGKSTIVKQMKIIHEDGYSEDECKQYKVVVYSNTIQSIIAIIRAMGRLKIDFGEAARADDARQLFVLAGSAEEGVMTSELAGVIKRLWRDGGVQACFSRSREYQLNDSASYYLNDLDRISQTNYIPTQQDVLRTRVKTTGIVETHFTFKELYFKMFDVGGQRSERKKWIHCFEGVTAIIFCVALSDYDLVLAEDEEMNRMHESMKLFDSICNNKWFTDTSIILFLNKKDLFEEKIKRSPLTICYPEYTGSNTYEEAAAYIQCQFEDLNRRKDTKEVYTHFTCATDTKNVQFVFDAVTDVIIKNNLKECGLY
Sa growth 42C: blocks Staphylococcus aureus growth | hit rate 0.53% among 170,000 | AID 720641 | relative growth, % (concentration not given with the values) | S. aureus RN4220 growth, OD600, 20 h, 42 °C; stronger effect = lower value;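 active = growth at 42 °C up to 50% and 20 or more points under that at 30 °C, or under 10% at both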;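 note: 300 nL library stock went into each well; scaled to the means of positive and negative controls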
HCMV NEC inh: inhibitors of HCMV UL50-UL53 nuclear egress complex interaction; HTRF UL50-UL53 interaction, normalized percent inhibition; inhibition, % (no concentration beside the values); hit rate 0.15% among 190,000;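 active = both replicates at 50% or more, plus weaker picks with an unusually low signal ratio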;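 note: stock transfer was 100 nL into about 20 µL; 0% = negative control wells and 100% = wells with untagged competitor protein; inactives centre near -12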
Sa growth 42C second temp: also measured in Sa growth 42C; calls as there; relative growth, %; measured here: growth at 30 °C;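 optical density after 20 h as mean of two plates; 100% = untreated growth and lower means inhibition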
The depositor's hits bear a star; / = not tested or not shown; & = joins results of further samples.

1) CCOC(=O)C1=C(C)C2C3C(=O)N(c4ccccc4F)C(=O)C3C1(C)C1C(=O)N(c3ccccc3F)C(=O)C21 (stereo not given)
2) Cc1ccc(S(=O)(=O)N(C)c2nc3ccccc3nc2Sc2nnnn2C)cc1
3) C=C(C)Cn1c(SCCC)nc2sc3c(c2c1=O)CC(C)(C)OC3
4) CCn1nnc2c(N3CCN(C=O)CC3)ncnc21
5) CCOC(=O)c1c(C)n(C)c2ccc(OCC(O)CNC(C)(C)C)cc12 (stereo not given)
6) CCc1ccc(NC(=O)CSC2=Nc3ccccc3C3=NC(CC(=O)NCc4cccs4)C(=O)N23)cc1 (stereo not given)
7) Cc1cc(NC(=O)c2ccc(C(C)(C)C)cc2)n(-c2ncnc3c2cnn3-c2ccccc2)n1
8) COc1ccc(N(C(=O)COc2c(C)cccc2C)S(=O)(=O)c2ccc(Cl)cc2)cc1
9) OC(CNCc1ccco1)CON=C1c2ccccc2-c2ccccc21 (stereo not given)
10) Cc1ccc(CCNC(=O)CCCn2c(=O)c3ccccc3n(CC(N)=O)c2=O)cc1
Screen / compound no.	1	2	3	4	5	6	7	8	9	10
GIV-Gai inh	107	/	99	105	105	103	100	101	103	104
Sa growth 42C	/	110	/	90	100	102	/	103	60	94
Sa growth 42C second temp	/	87	/	83	89	84	/	82	14	89
HCMV NEC inh	-37	-42	-11	-18	-7	/	-32	-42	-96	-19

11) COc1ccccc1N1CCN(C(=O)C(C)c2ccc(CC(C)C)cc2)CC1 (stereo not given)
12) Fc1ccccc1OC1OCCOC1Oc1ccccc1F (stereo not given)
13) O=C(NCc1ccccc1)C(c1ccccn1)N(C(=O)c1csnn1)C1CC1 (stereo not given)
14) Oc1ccccc1CNc1ccc(Br)cc1
15) Cn1c(=O)[nH]c(=O)c2c1nc(SCc1cccc(Br)c1)n2CC(O)COc1ccccc1 (stereo not given)
16) CC(=O)CSc1nc(-c2ccccc2)[nH]c1S(=O)(=O)c1ccc(C)cc1
17) CC1CCN(c2nc3ccccn3c(=O)c2/C=C2\SC(=S)N(C(C)c3ccccc3)C2=O)CC1 (stereo not given)
18) CN1CCN(CC#CCC(O)(c2ccccc2)C2CCCC2)CC1 (stereo not given)
19) CCN(CCCN1C(=O)CSC1c1ccc(OC(F)F)c(OC)c1)c1ccccc1 (stereo not given)
20) COc1ccc(N2CCN(CCCNC(=O)C3COc4ccccc4C3)CC2)cc1 (stereo not given)
Screen / compound no.	11	12	13	14	15	16	17	18	19	20
GIV-Gai inh	103	/	100	102	100	101	132	104	/	105
Sa growth 42C	66	112	121	68	/	98	/	96	101	121
Sa growth 42C second temp	33	89	85	81	/	78	/	80	75	106
HCMV NEC inh	-36	-23	-21	/	-15	-21	8	-16	-27	/

21) O=C(NC1CCCCC1)C1CCN(c2nccn3nc(-c4ccccc4)cc23)CC1
22) CN1CCc2cc(Cl)c(O)cc2[C@@H](c2ccccc2)C1
23) COc1c(Br)cc(-c2noc(CSC)n2)cc1Br
24) CC(=O)c1ccc(NS(=O)(=O)c2cc3[nH]c(=O)c(=O)[nH]c3cc2C)cc1
25) CCC1CCCCN1CCCNC(=O)c1ccc2c(c1)N(Cc1ccccc1F)C(=O)c1ccccc1S2(=O)=O (stereo not given)
26) CC(C)(C)C(=O)CSc1nc(N)cc(N)n1
27) CN(C)C(CNC(=O)c1sc2ccccc2c1Cl)c1cccs1 (stereo not given)
28) O=C(NC1CCCCC1)C1CCN(C(=O)c2ccco2)CC1
29) O=C1CCCN1C(=O)CSc1nc2cc(Cl)ccc2s1
30) COC(=O)C1CC2CC(CC(C(=O)OC)C23SCCS3)C1=O (stereo not given)
Screen / compound no.	21	22	23	24	25	26	27	28	29	30
GIV-Gai inh	99	108	98	105	102	/	109	104	/	102
Sa growth 42C	/	84	103	107	114	107	/	95	92	101
Sa growth 42C second temp	/	88	109	106	62	97	/	83	98	93
HCMV NEC inh	-14	-9&-20	0	/	-1	11	-44	/	-6	-12

Single records (already shown). Order of screens: GIV-Gai inh	Sa growth 42C	Sa growth 42C second temp	HCMV NEC inh
Results for CC(=O)c1ccc(NS(=O)(=O)c2cc3[nH]c(=O)c(=O)[nH]c3cc2C)cc1 : 105	107	106	/
Results for COc1c(Br)cc(-c2noc(CSC)n2)cc1Br : 98	103	109	0

More records:
31) Cc1ccc(C)c(NC(=O)C(Cc2ccccc2)N2Cc3ccccc3C2=O)c1 (stereo not given)
32) N#Cc1nc(-c2ccccc2)oc1N1CCOCC1
33) Cc1nn2c(=O)cc(COC(=O)c3ccc(NC(=O)C4CCCCC4)cc3)nc2s1
34) Cc1onc(-c2ccccc2)c1C(=O)N1CCC(C)CC1
35) O=C1CC(C(=O)N2CCN(C(=O)C3CC3)CC2)CN1Cc1ccco1 (stereo not given)
36) Cc1ccc2cccc(OCC(=O)N3CC(C)CC(C)C3)c2n1 (stereo not given)
37) Cc1cc(=O)n2c(C(=O)Nc3ccc(C)c(Cl)c3)c(C(=O)Nc3ccccc3)sc2n1
38) COc1ccccc1NC(=O)CCn1nc(-c2ccccc2OC)c2c(C)cc(C)nc21
39) Cc1oc(-c2ccc(Cl)cc2)nc1CN1CCCC(C(=O)N2CCN(C(=O)c3ccco3)CC2)C1 (stereo not given)
40) CCN(C(=O)CSc1nc(N)cc(=O)[nH]1)C1=CCCC1
Screen / compound no.	31	32	33	34	35	36	37	38	39	40
GIV-Gai inh	109	/	104	100	/	/	97	107	106	/
Sa growth 42C	84	82	86	101	100	102	94	87	88	80
Sa growth 42C second temp	89	82	97	93	91	81	82	78	89	93
HCMV NEC inh	/	-3	/	-19	-10	-25	-2	4	-2	-3

41) CCC(=O)Nc1ccccc1-c1nc2ccccc2n(CC(=O)c2ccc(C)c(C)c2)c1=O
42) CC1CCCCN1C(=O)COC(=O)/C=C/c1ccc2ccccc2n1 (stereo not given)
43) NC(=S)CN1CCCC1=O
44) Cc1ccc2scc(N3CCCC(C)C3)c(=O)c2c1 (stereo not given)
45) O=C(Cc1ccc(Cl)cc1)NCCN1CCOCC1
46) O=C(Nc1nc(-c2ccc3c(c2)OCO3)cs1)c1cc2ccccc2oc1=O
47) Cc1ccc(-c2csc(-n3[nH]c(C)c(CC(=O)N4CCCC4)c3=O)n2)cc1
48) C=CCNc1oc(COc2cccc(Cl)c2)nc1C#N
49) O=C(Nc1ccccc1)C(CC(=O)N1CCOCC1)C(=O)c1ccccc1 (stereo not given)
50) CCc1ccc(OCCCn2cc(/C=C3/C(=N)N4C=CSC4=NC3=O)c3ccccc32)cc1
Screen / compound no.	41	42	43	44	45	46	47	48	49	50
GIV-Gai inh	99	/	108	104	104	105	97	104	/	109
Sa growth 42C	91	90	100	149	94	87	/	94	118	92
Sa growth 42C second temp	86	98	82	78	77	86	/	90	84	82
HCMV NEC inh	-13	10	/	/	-4	-8	-14	0	-30	/

51) Cc1csc(SCc2ccc(C(=O)O)cc2)n1
52) O=C(c1cnc2ccccc2c1S(=O)(=O)c1ccccc1)N1CCCCC1
53) CCN1C(=O)c2ccc(-c3ccc(C=C4C(=O)NC(=O)NC4=O)o3)cc2C1=O
54) CC(=O)c1cccc(NC(=O)C2CCCN(C(=O)c3cnn(-c4ccccc4)c3-n3cccc3)C2)c1 (stereo not given)
55) Cc1[nH]c(C(=O)N2CCC(CC(=O)NCc3ccccc3F)CC2)c(C)c1C(=O)OC(C)C
56) O=c1ccnc(SCc2ccc(Br)cc2)[nH]1
57) CC1=C(C#N)C(=O)N(C)C(=O)/C1=C/c1ccc(-c2ccccc2C(=O)O)o1
58) N#CCC(=O)N1CCN(c2ccccc2)CC1
59) O=C(Nc1ccc(S(=O)(=O)N2CCCCCC2)cc1)c1nc2ncccn2n1
60) O=C(O)C1CCC(CNS(=O)(=O)c2ccccc2)CC1 (stereo not given)
Screen / compound no.	51	52	53	54	55	56	57	58	59	60
GIV-Gai inh	/	110	89	107	107	102	84*	101	100	100
Sa growth 42C	107	/	104	106	/	109	84	87	95	78
Sa growth 42C second temp	107	/	82	87	/	95	79	91	75	92
HCMV NEC inh	3	-17	-69	-6	-4	-2	-28	1	-12	-1

61) O=S(=O)(Nc1ccc(OC(F)(F)F)cc1)c1ccc(N2CCCCS2(=O)=O)cc1
62) Cc1noc2c1C(c1ccccc1F)C1=C(CC(c3ccccc3O)CC1=O)N2 (stereo not given)
63) COc1ccc(OC)c(NC(=O)C2Cc3ccccc3CN2S(=O)(=O)c2ccc(F)cc2)c1 (stereo not given)
64) CCOc1ccc(-n2cc(-c3ccccc3)c3c(NCc4ccc(F)cc4)ncnc32)cc1
65) Cc1nc(-c2ccc(N3CCN(C(=O)Nc4cccc(Cl)c4)CC3)cc2)no1
66) Cc1nn(C)cc1NC(=O)Nc1ccc(F)cc1
67) CC(=O)ON1C(C)(C)Cc2noc(N)c2C1(C)C
68) O=C(Nc1nnc(NC(=O)c2ccccc2O)s1)c1ccccc1O
69) COc1ccc(C)cc1Cn1c(S(C)(=O)=O)nc2ccccc21
70) Cn1c(=O)[nH]c(=O)c2c1nc(N1CCCC1)n2CCSc1ncccn1
Screen / compound no.	61	62	63	64	65	66	67	68	69	70
GIV-Gai inh	99	105	106	105	107	98	/	102	104	98
Sa growth 42C	99	/	111	109	/	93	109	108	107	129
Sa growth 42C second temp	85	/	95	88	/	91	82	88	78	85
HCMV NEC inh	/	13	-2	/	-13	-7	-7	-7	/	-11

71) O=C(COCC(=O)N1CCN(c2ccccc2)CC1)N1CCN(c2ccccc2)CC1
72) CCN(CC)CCCNC(=O)CSc1nc(-c2ccc(OC)cc2)cc(C(F)(F)F)n1
73) CCc1ccc(C(=O)C2=CN(c3ccc(OC)cc3)c3ccc(F)cc3S2(=O)=O)cc1
74) CC(C)CN(CCNC(=O)CCN1N=C(c2ccccc2)CCC1=O)CC(C)C
75) COc1ccccc1C(=O)Nc1ccc(-c2nc3ccccc3s2)c(C)c1
76) CCn1cc(C(=O)N2CCN(c3ccccc3)CC2)c(=O)c2cc(S(=O)(=O)N(C)C3CCCCC3)ccc21
77) CCC(C)NC(=O)CCCc1nnc2n(CC(C)C)c(=O)c3sccc3n12 (stereo not given)
78) Cc1nc(SCC(=O)NCc2ccc(Cl)cc2)c(C#N)c(C)c1Cl
79) O=C(COC(=O)c1ccc2ccccc2n1)NC1CC1
80) CC(=O)n1nc(-c2ccc(Cl)cc2)nc1NCc1ccc(F)cc1
Screen / compound no.	71	72	73	74	75	76	77	78	79	80
GIV-Gai inh	/	97	99	104	99	106	98	/	/	100
Sa growth 42C	104	85	/	121	107	104	100	94	101	88
Sa growth 42C second temp	92	95	/	90	86	90	92	84	88	84
HCMV NEC inh	8	/	-18	/	/	-30	/	-8	-81	/

18 of the compounds above, as tab-separated lines.
#	smiles	GIV-Gai inh	Sa growth 42C	Sa growth 42C second temp	HCMV NEC inh
63	COc1ccc(OC)c(NC(=O)C2Cc3ccccc3CN2S(=O)(=O)c2ccc(F)cc2)c1 (stereo not given)	106	111	95	-2
64	CCOc1ccc(-n2cc(-c3ccccc3)c3c(NCc4ccc(F)cc4)ncnc32)cc1	105	109	88	/
65	Cc1nc(-c2ccc(N3CCN(C(=O)Nc4cccc(Cl)c4)CC3)cc2)no1	107	/	/	-13
66	Cc1nn(C)cc1NC(=O)Nc1ccc(F)cc1	98	93	91	-7
67	CC(=O)ON1C(C)(C)Cc2noc(N)c2C1(C)C	/	109	82	-7
68	O=C(Nc1nnc(NC(=O)c2ccccc2O)s1)c1ccccc1O	102	108	88	-7
69	COc1ccc(C)cc1Cn1c(S(C)(=O)=O)nc2ccccc21	104	107	78	/
70	Cn1c(=O)[nH]c(=O)c2c1nc(N1CCCC1)n2CCSc1ncccn1	98	129	85	-11
71	O=C(COCC(=O)N1CCN(c2ccccc2)CC1)N1CCN(c2ccccc2)CC1	/	104	92	8
72	CCN(CC)CCCNC(=O)CSc1nc(-c2ccc(OC)cc2)cc(C(F)(F)F)n1	97	85	95	/
73	CCc1ccc(C(=O)C2=CN(c3ccc(OC)cc3)c3ccc(F)cc3S2(=O)=O)cc1	99	/	/	-18
74	CC(C)CN(CCNC(=O)CCN1N=C(c2ccccc2)CCC1=O)CC(C)C	104	121	90	/
75	COc1ccccc1C(=O)Nc1ccc(-c2nc3ccccc3s2)c(C)c1	99	107	86	/
76	CCn1cc(C(=O)N2CCN(c3ccccc3)CC2)c(=O)c2cc(S(=O)(=O)N(C)C3CCCCC3)ccc21	106	104	90	-30
77	CCC(C)NC(=O)CCCc1nnc2n(CC(C)C)c(=O)c3sccc3n12 (stereo not given)	98	100	92	/
78	Cc1nc(SCC(=O)NCc2ccc(Cl)cc2)c(C#N)c(C)c1Cl	/	94	84	-8
79	O=C(COC(=O)c1ccc2ccccc2n1)NC1CC1	/	101	88	-81
80	CC(=O)n1nc(-c2ccc(Cl)cc2)nc1NCc1ccc(F)cc1	100	88	84	/

The order is random. About 0.83% of those tested had a hit in this group.
